# Compound activity: PubChem, several laboratories
# Env fusion inh: blocks HIV Env-driven cell-cell fusion. HeLa-JRFL Env/CEM21 cell fusion, luciferase. AID 651610. 360,000 tested, 1.1% active. inhibition, % at 12.3 µM;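 active means mean replicate inhibition score of at least 50 and every replicate individually at or above 50; inconclusive means only one of the two criteria met; inactive means mean below 50 and not all replicates reaching 50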;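 further: 0% = plate neutral controls and 100% = maraviroc near 300 nM; one replicate is shown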
# eIF4H inh: inhibitors of RNA binding by human eIF4H; Q15056; eIF4H fluorescence polarization binding assay; inhibition, % at 35 µM; 290,000 tested, 0.94% active; AID 2012;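 active means 50% or more with normal probe brightness, or confirmed in later tests; inconclusive means above 50% with abnormal brightness, or retests that disagree; inactive means below 50% or failed in later tests; about a fifth of its hits are not listed in these tables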;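 further: calls also rest on retests at 20 µM and on dose response follow-up; 0% = protein and probe with vehicle and 100% = probe without protein; strong numbers were not always called active; many hits fall short of the cut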
# Rce1 inhib: inhibitors of yeast Ras-converting enzyme; Q03530; calls only; yeast membranes, quenched prenylated peptide cleavage fluorescence; 290,000 tested, 0.27% active;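 active means fall in fluorescence gain of 50% or more versus controls, with final raw signal at or below 3038400; inconclusive means same 50% fall but final raw signal above 3038400; inactive means fall in fluorescence gain under 50%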;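 further: plate controls were neutral control wells for no effect and wells lacking membranes for full effect; tested at 10 µM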
# MT1-MMP act inh: inhibitors of human MT1-MMP activation; HT1080 RFP-PRO-GFP cells, GFP/RFP ratio fluorescence, overnight; percent of plate control window, DMSO zero; 360,000 tested, 0.061% active; GFP/RFP ratio change, % at 20 µM;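 active means GFP/RFP ratio change of at least 30% with cell ATP level not reduced by more than half and red fluorescence within 50% of control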; further: strong numbers were not always called active
#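 Test system: HT1080 RFP-PRO-GFP cells; Benchmarks: DMSO and RFP-L50D-GFP cell wells; Timing: cells overnight before dosing, compound overnight, 37 °C, 5% CO2; Compound: one 20 µM compound dose with 1% DMSO; Read-out: GFP/RFP fluorescence ratio.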
# PABP FP inh: blocks human PABP binding to poly(A) RNA; P11940; fluorescence polarization; inhibition, % at 35 µM; 290,000 tested, 1% active;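 active means 50% or more with normal probe brightness, or confirmed in later tests; inconclusive means above 50% with abnormal brightness, or retests that disagree; inactive means below 50% or failed in later tests; about a fifth of its hits are not listed in these tables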;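 further: calls also rest on retests at 20 µM and on dose response follow-up; controls were probe without protein and protein plus probe with vehicle; some compounds called inactive have numbers as strong as hits; many hits fall short of the cut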
# Target sequence (P11940 whole entry, looked up): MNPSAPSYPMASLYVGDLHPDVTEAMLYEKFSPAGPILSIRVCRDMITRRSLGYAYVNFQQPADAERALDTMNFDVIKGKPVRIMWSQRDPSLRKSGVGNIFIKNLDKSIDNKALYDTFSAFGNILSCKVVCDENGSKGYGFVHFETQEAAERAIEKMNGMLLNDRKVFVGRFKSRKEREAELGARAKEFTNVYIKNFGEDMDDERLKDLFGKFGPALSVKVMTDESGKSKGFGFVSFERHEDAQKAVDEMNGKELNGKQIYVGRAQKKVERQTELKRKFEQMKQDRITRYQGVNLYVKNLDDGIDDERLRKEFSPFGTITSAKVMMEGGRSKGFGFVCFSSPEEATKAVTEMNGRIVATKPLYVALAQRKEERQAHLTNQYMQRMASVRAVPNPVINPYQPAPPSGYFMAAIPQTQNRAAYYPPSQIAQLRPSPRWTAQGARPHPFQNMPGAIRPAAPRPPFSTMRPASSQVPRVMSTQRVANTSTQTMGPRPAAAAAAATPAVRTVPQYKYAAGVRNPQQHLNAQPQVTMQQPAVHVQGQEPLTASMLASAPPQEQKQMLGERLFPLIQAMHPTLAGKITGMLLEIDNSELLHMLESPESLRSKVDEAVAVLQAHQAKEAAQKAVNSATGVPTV
# UUG fidelity: alters start codon recognition fidelity in yeast | activity score, % at 18.7 µM | S. cerevisiae UUG-firefly luciferase reporter, luminescence/redox ratio | 350,000 tested, 0.13% active;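 active means replicate mean at a twofold rise or more, about +100% in these data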;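 further: firefly luciferase made from a UUG start codon reports start codon fidelity; reporter light over untreated wells divided by growth signal over untreated wells; some hits fall short of that in this replicate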
# CSC inhib: blocks cancer stem cells | cancer stem cell-like cells viability, luminescence | inhibition, % at 7.5 µM | 300,000 tested, 1.1% active | AID 2717;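 active means mean at 75% or more and at least half the replicates too; inconclusive means mean and replicates disagree; tested in HMLE shEcad cells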;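 further: 0% = median of negative and 100% = median of positive control wells; the first replicate is given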
# eIF4H inh retest: second read-out of eIF4H inh, no call of its own (marks repeat the call); inhibition, %; compound at 20 µM; confirmation average;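 mean of two retest wells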
# PABP FP inh retest: further read-out of PABP FP inh, marked with its call; inhibition, %; compound at 20 µM; confirmation repeats;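 mean of two retest wells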
# MT1-MMP act inh RFP: recorded beside MT1-MMP act inh, whose call it bears; RFP signal change, %; measured here: RFP expression control read;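 0 = vehicle wells; hits needed this value within 50% of zero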
# Numbers without * were called inactive; i = inactive; u = inconclusive; x = not tested or not shown. An excerpt (hit frequency here may not be typical).
# Start of the data: the first 3 compounds (preview)
SMILES,Env fusion inh,eIF4H inh,Rce1 inhib,MT1-MMP act inh,MT1-MMP act inh RFP,PABP FP inh,UUG fidelity,CSC inhib,others
Cc1ccc(Sc2ccc(/C=N/O)cc2[N+](=O)[O-])cc1,x,11,i,-1,-1,4,x,-15,
CCOC(=O)C1(C)CCCN(C(=O)c2ccc(OC)c(OC)c2)C1 (configuration not stated),12,x,x,-1,1,x,-13,x,
Cc1ccc2cc3c(NC(=O)c4ccco4)nn(C)c3nc2c1,x,-3,i,2,-1,-1,x,-3,

# This part in full, from the first entry:
SMILES,Env fusion inh,eIF4H inh,Rce1 inhib,MT1-MMP act inh,MT1-MMP act inh RFP,PABP FP inh,UUG fidelity,CSC inhib,others
Cc1ccc(Sc2ccc(/C=N/O)cc2[N+](=O)[O-])cc1,x,11,i,-1,-1,4,x,-15,
CCOC(=O)C1(C)CCCN(C(=O)c2ccc(OC)c(OC)c2)C1 (configuration not stated),12,x,x,-1,1,x,-13,x,
Cc1ccc2cc3c(NC(=O)c4ccco4)nn(C)c3nc2c1,x,-3,i,2,-1,-1,x,-3,
COCCNC(=O)c1cccc(OC2CCN(C(C)COc3ccccc3)CC2)c1 (configuration not stated),-441,-7,i,1,0,3,5,-15,
CCC(=O)N(CCC1(C(C)C)CCOC(C)(C)C1)Cc1ccco1 (configuration not stated),-90,-4,i,-3,-2,5,-3,-12,
NS(=O)(=O)c1ccc(CCNS(=O)(=O)c2cccc(C(=O)O)c2)cc1,12,16,i,3,5,12,-3,20,
Cc1cccc(NC(=S)NC2CC3CCCC(C2)N3CC(C)C)c1 (configuration not stated),-59,-8,i,6,9,-8,-19,-15,
COc1ccc(OC)c(S(=O)(=O)n2ccc(C)n2)c1,-88,-2,x,0,2,3,-10,-7,
O=c1[nH]cc(NCCNc2ncc(C(F)(F)F)cc2Cl)c(=O)[nH]1,-18,-8,i,x,x,2,x,x,
CC(C)c1cc(CNC(=O)CCc2nnc(CCCc3ccccc3)o2)on1,-25,-10,i,1,7,-10,x,-20,
Cc1cccc(C(=O)N[C@H](C(=O)Nc2ccc(S(=O)(=O)NC3=NCCCCC3)cc2)C(C)C)c1,-3,0,i,-2,-3,10,x,-9,
CCN(CC(=O)Nc1c(F)cccc1F)C(=O)c1cccc(S(=O)(=O)N2CCN(c3ccccc3)CC2)c1,13,7,i,-5,-17,-15,-20,x,
CS(=O)(=O)N(Cc1nnc(-c2cccs2)o1)c1ccc(Cl)cc1F,-51,-4,i,-2,3,-6,-4,-17,
Cc1cccnc1NC(=O)Nc1cccc2ccccc12,x,-1,i,-6,-8,-11,-15,1,
COc1ccccc1NC(=O)CSc1ccc2nnc(-c3ccncc3)n2n1,7,10,i,-2,3,-9,-18,-6,
Nn1c(SCC(=O)NCCC2=CCCCC2)nnc1-c1cccnc1,-7,x,x,-5,2,x,-17,x,
Clc1ccc2c(N/N=C/c3ccccc3Br)ccnc2c1,x,-12,i,-6,-11,-2,-14,50,
Cn1c(N)c(C(=O)N/N=C/c2ccccc2)sc1=S,-3,-4,i,5,-7,-6,-14,12,
CCOC(=O)c1c2c3c(cccc3[nH]c1=O)C(=O)c1ccccc1-2,-6,0,x,-10,0,-1,-15,-10,
COc1ccc(C(=O)Cn2cc([N+](=O)[O-])nc2C)cc1,-1,3,i,2,1,8,-25,x,
Cc1ccc(S(=O)(=O)C2(S(=O)(=O)c3ccc(C)cc3)CC2)cc1,10,2,i,0,-5,-2,-10,5,
CCn1nc(C(=O)OCC(=O)c2ccc(F)cc2)c2ccccc2c1=O,-8,-1,i,-1,1,-8,x,4,
Cc1ccc(S(=O)(=O)NNC(=O)c2ccc(O)cc2)cc1,x,-3,i,7,3,10,-2,-8,
FC(F)(F)c1cccc(Cc2noc(CN3CCC(N4CCCCC4)CC3)n2)c1,4,-1,i,1,0,-9,-8,60,
COc1ccc(-c2nn(CCC#N)cc2C=C(C#N)C#N)cc1,-4,2,i,-1,-3,-6,-17,-3,
C/C=C/C=C/C(=O)Nc1nccs1,3,-2,i,10,6,-13,-14,-6,
COc1ccc(NC(=O)CN(C)C(=O)C2CC(=O)N(c3ccc4c(c3)OCCO4)C2)cc1 (configuration not stated),x,x,i,2,3,x,x,-9,
N/C(=N\OC(=O)CCC1CCCC1)c1ccncc1,-6,3,x,5,-3,6,-13,-10,
Cc1ccc(SCc2noc(-c3c(C)noc3C)n2)cc1,-8,3,i,1,-3,0,-13,-14,
O=C(O)c1ccc(/C=C/c2nc3ccccc3c(=O)[nH]2)cc1,25,-10,i,1,0,1,-8,4,
Cc1ccc(OCCNC(=O)[C@H]2O[C@@H](n3ccc(N)nc3=O)[C@H](O)[C@@H]2O)cc1C,-2,x,x,0,2,x,8,x,
O=[N+]([O-])c1ccc(O)c(C=Nc2cccc3ncccc23)c1,-1,58,i,2,4,4,-15,16,eIF4H inh retest=-5;PABP FP inh retest=5
COc1ccc(C(=O)Nc2cc(Cl)ccc2OC(=O)c2ccc(OC)cc2)cc1,x,-9,i,2,-3,-8,-4,20,
COc1ccccc1Oc1ccccc1[N+](=O)[O-],-10,6,i,2,4,5,x,-19,
O=C(CNC(=O)c1ccccc1Cl)NCC(c1cccs1)N1CCOCC1 (configuration not stated),-3,x,i,-3,0,x,x,x,
COc1ccc(S(=O)(=O)N2CCC3CC2c2cc(N4CCOCC4)ccc23)cc1 (configuration not stated),3,x,x,1,-6,x,-8,x,
COc1ccc(Cc2nnc(SCc3nc4ccccc4c(=O)[nH]3)o2)cc1,x,0,i,9,0,20,-12,x,
CC(C)Cn1c(N)c(C(=O)COC(=O)c2ccccc2F)c(=O)n(C)c1=O,22,-9,i,3,-10,1,x,-3,
CNc1oc(-c2ccccc2F)nc1S(=O)(=O)c1ccc(C)cc1,13,0,x,-2,-1,5,-13,-1,
Cc1ccc(S(=O)(=O)NCC2CCC(C(=O)O)CC2)cc1 (configuration not stated),x,-2,i,0,6,-7,x,x,

# The closing 3 entries of the part above open the next one.
SMILES,Env fusion inh,eIF4H inh,Rce1 inhib,MT1-MMP act inh,MT1-MMP act inh RFP,PABP FP inh,UUG fidelity,CSC inhib,others
CC(C)Cn1c(N)c(C(=O)COC(=O)c2ccccc2F)c(=O)n(C)c1=O,22,-9,i,3,-10,1,x,-3,
CNc1oc(-c2ccccc2F)nc1S(=O)(=O)c1ccc(C)cc1,13,0,x,-2,-1,5,-13,-1,
Cc1ccc(S(=O)(=O)NCC2CCC(C(=O)O)CC2)cc1 (configuration not stated),x,-2,i,0,6,-7,x,x,
Cc1ccc(C#CC[N+]2(CC#Cc3ccc(C)cc3)CCCCC2)cc1,30,10,i,-20,-33,2,x,16,
C/C(CC(C)(C)c1ccccc1)=N\NS(=O)(=O)c1ccccc1,17,3,i,-1,2,2,-19,3,
Cc1ccc(NC(=S)NC2CC3CCCC(C2)N3Cc2cccs2)cc1 (configuration not stated),x,-12,i,2,0,-5,-10,-32,
CCCCn1c(=O)[nH]c(=O)c2c1nc(-c1cccc(OC)c1)n2C,13,11,i,0,-1,2,-23,31,
N#C/C(C(=O)N1CCCC1)=C1/N=C(N)c2ccccc21,15,-13,i,0,5,10,6,4,
O=C(CCn1cnnn1)Nc1ccccc1F,9,4,i,-2,2,6,-6,-16,
COC(=O)c1ccc(CNC(=O)COC(=O)C2CCC(C(C)(C)C)CC2)cc1 (configuration not stated),5,0,i,6,4,-2,x,36,
COC(=O)c1sccc1NC(=S)NCc1ccc(Cl)cc1,15,-3,i,-4,-4,-6,-21,35,
CCOc1ccc(CCNC(=O)COC(=O)c2ccc(S(=O)(=O)N3CCCC3)cc2)cc1OCC,1,x,i,0,2,x,x,5,
COc1ccc(CNC(=O)c2sc(=O)n(Cc3ccc(S(=O)(=O)N(C)C)cc3)c2C)cc1,u,x,x,4,-23,x,-10,x,
CCOC(=O)Cc1csc(NS(=O)(=O)c2ccc(SC)cc2)n1,-4,-4,i,3,3,-4,x,0,
O=C(COc1ccc2c3c(c(=O)oc2c1)CCC3)N[C@@H](Cc1ccccc1)C(=O)O,x,-9,i,4,6,-3,-17,-5,
COc1ccc(CC(=O)N[C@@H](CCSC)C(=O)N2CCC3(CC2)NCCc2[nH]cnc23)cc1,4,-17,i,0,7,3,-17,-13,
O=C(c1cccs1)N(Cc1ccccn1)Cc1ccco1,-3,-2,i,-1,-1,71,-16,-1,eIF4H inh retest=0;PABP FP inh retest=-1
COC(=O)[C@H](C)[C@H]1C[C@]1(C)[C@H](NC(=O)OCc1ccccc1)c1ccccc1,-3,-7,i,-3,1,-4,-1,-6,
COc1cc(-c2noc(-c3cccc(Cl)c3)n2)cc(OC)c1OC,-6,0,i,9,-1,6,-2,-12,
COc1cccc(CN2CCC2(C)C(=O)Nc2ccc(C)cc2)c1F (configuration not stated),13,x,x,-1,0,x,7,x,
COc1cc(S(=O)(=O)Nc2ccccc2C)ccc1Cl,x,7,i,0,-1,5,-7,-1,
O=C(Nc1nonc1NC(=O)c1cccs1)c1cccs1,5,-2,i,2,-30,-10,x,7,
CCCCOc1ccc(C(O)(CC)CCN2CCOCC2)cc1 (configuration not stated),1,-5,i,0,-3,-7,-14,7,

# The final three records of the section above open the next one:
SMILES,Env fusion inh,eIF4H inh,Rce1 inhib,MT1-MMP act inh,MT1-MMP act inh RFP,PABP FP inh,UUG fidelity,CSC inhib,others
COc1cc(S(=O)(=O)Nc2ccccc2C)ccc1Cl,x,7,i,0,-1,5,-7,-1,
O=C(Nc1nonc1NC(=O)c1cccs1)c1cccs1,5,-2,i,2,-30,-10,x,7,
CCCCOc1ccc(C(O)(CC)CCN2CCOCC2)cc1 (configuration not stated),1,-5,i,0,-3,-7,-14,7,
COc1ccc(CC(=O)c2ccc(OC)c(OC)c2C)cc1OC,39,5,i,0,-27,-4,8,4,
CC(C)(C)c1nnc2sc(SC/C(O)=C(\C#N)c3nc4ccccc4[nH]3)nn2c1=O,-33,7,i,-6,6,14,-16,-11,
COc1ccc(Cn2c(-c3ccc(OC)cc3)n[nH]c2=S)cc1,1,-12,i,1,-1,-9,x,-15,
CNC(=S)N/N=C/c1ccc(OCC(=O)Nc2c(C)cc(C)cc2C)c(OC)c1,15,-2,i,-2,-5,-16,x,-5,
c1ccc(CNc2ncnc3c2oc2ccccc23)nc1,6,6,i,-3,-3,0,-19,-20,
Cn1c(SCC(=O)NCCC2=CCCCC2)nnc1C(F)(F)F,-13,x,x,-4,0,x,5,x,
COC1CC(N)C2OC(c3ccccc3)OCC2O1 (configuration not stated),10,x,x,-2,10,x,-11,x,
CCOC(=O)Cn1c(O)c(N=NC(=O)CNC(=O)Cc2ccccc2)c2ccccc21,-5,-3,i,-3,6,-5,-3,-1,
N#Cc1ccc2sn(-c3ccccc3)c(=O)c2c1,-165,x,x,-2,-2,x,-37,x,
COc1ccc(C(=O)c2c(C)oc3ccc(O)cc23)c(OC)c1,2,0,i,-1,-2,-6,-5,15,
O=C(Nc1ccccc1C(=O)N1CCN(Cc2ccccc2)CC1)c1ccccc1,-29,-6,i,-5,0,1,-15,-12,
